# Source: PubChem BioAssay
# CSC inhib = blocks cancer stem cells | inhibition, % at 7.5 µM | cancer stem cell-like cells viability, luminescence | 300,000 tested, 1.1% active | AID 2717;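 active = mean at 75% or more and at least half the replicates too; inconclusive = mean and replicates disagree; tested in HMLE shEcad cells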;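 also: 0% = median of negative and 100% = median of positive control wells; the first replicate is given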
# PABP FP inh = blocks human PABP binding to poly(A) RNA; P11940; AID 2014; fluorescence polarization; inhibition, % at 35 µM; 290,000 tested, 1% active;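 active = 50% or more with normal probe brightness, or confirmed in later tests; inconclusive = above 50% with abnormal brightness, or retests that disagree; inactive = below 50% or failed in later tests; about a fifth of its hits are not listed in these tables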;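 also: calls also rest on retests at 20 µM and on dose response follow-up; controls were probe without protein and protein plus probe with vehicle; some compounds called inactive have numbers as strong as hits; many hits fall short of the cut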
# Target sequence (P11940 whole entry, looked up): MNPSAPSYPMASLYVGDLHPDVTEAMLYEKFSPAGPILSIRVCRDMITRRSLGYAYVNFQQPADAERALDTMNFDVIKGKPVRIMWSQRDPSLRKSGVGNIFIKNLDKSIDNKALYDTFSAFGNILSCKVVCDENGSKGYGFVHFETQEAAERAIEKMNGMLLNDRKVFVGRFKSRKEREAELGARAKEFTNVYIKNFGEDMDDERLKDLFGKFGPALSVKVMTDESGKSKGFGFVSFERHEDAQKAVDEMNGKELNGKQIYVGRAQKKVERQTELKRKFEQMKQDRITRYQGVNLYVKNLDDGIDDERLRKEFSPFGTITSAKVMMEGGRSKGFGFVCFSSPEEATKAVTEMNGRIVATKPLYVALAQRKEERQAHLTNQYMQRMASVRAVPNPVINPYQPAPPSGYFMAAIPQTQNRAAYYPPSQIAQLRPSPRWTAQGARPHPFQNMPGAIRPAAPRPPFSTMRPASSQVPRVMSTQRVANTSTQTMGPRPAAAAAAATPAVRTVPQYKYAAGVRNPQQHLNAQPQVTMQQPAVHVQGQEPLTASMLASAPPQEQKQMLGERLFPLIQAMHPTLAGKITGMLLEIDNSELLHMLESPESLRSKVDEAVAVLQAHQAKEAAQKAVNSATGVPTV
# Rce1 inhib = yeast Ras-converting enzyme inhibition | yeast membranes, quenched prenylated peptide cleavage fluorescence | calls only | 290,000 tested, 0.27% active;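 active = fall in fluorescence gain of 50% or more versus controls, with final raw signal at or below 3038400; inconclusive = same 50% fall but final raw signal above 3038400; inactive = fall in fluorescence gain under 50%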;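 also: plate controls were neutral control wells for no effect and wells lacking membranes for full effect; tested at 10 µM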
# UUG fidelity = modulators of start codon recognition fidelity in yeast. S. cerevisiae UUG-firefly luciferase reporter, luminescence/redox ratio. AID 602363. activity score, % at 18.7 µM. 350,000 tested, 0.13% active;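 active = replicate mean at a twofold rise or more, about +100% in these data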;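 also: firefly luciferase made from a UUG start codon reports start codon fidelity; reporter light over untreated wells divided by growth signal over untreated wells; some hits fall short of that in this replicate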
# eIF4H inh = inhibitors of RNA binding by human eIF4H | inhibition, % at 35 µM | 290,000 tested, 0.94% active | Q15056 | eIF4H fluorescence polarization binding assay | AID 2012;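 active = 50% or more with normal probe brightness, or confirmed in later tests; inconclusive = above 50% with abnormal brightness, or retests that disagree; inactive = below 50% or failed in later tests; about a fifth of its hits are not listed in these tables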;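 also: calls also rest on retests at 20 µM and on dose response follow-up; 0% = protein and probe with vehicle and 100% = probe without protein; strong numbers were not always called active; many hits fall short of the cut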
# Env fusion inh = inhibitors of HIV Env-mediated cell fusion; 360,000 tested, 1.1% active; HeLa-JRFL Env/CEM21 cell fusion, luciferase; inhibition, % at 12.3 µM;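 active = mean replicate inhibition score of at least 50 and every replicate individually at or above 50; inconclusive = only one of the two criteria met; inactive = mean below 50 and not all replicates reaching 50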;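 also: 0% = plate neutral controls and 100% = maraviroc near 300 nM; one replicate is shown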
# MT1-MMP act inh = inhibitors of human MT1-MMP activation | P50281 | HT1080 RFP-PRO-GFP cells, GFP/RFP ratio fluorescence, overnight; percent of plate control window, DMSO zero | GFP/RFP ratio change, % at 20 µM | 360,000 tested, 0.061% active | AID 651647;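 active = GFP/RFP ratio change of at least 30% with cell ATP level not reduced by more than half and red fluorescence within 50% of control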; also: strong numbers were not always called active
#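 Assay system: HT1080 RFP-PRO-GFP cells | Dosing: 20 µM single dose, 1% DMSO | Incubation: Cells overnight before dosing, compound overnight, 37 °C, 5% CO2 | Evaluation: GFP/RFP fluorescence ratio | Control set: DMSO-only wells and HT1080 RFP-L50D-GFP cell wells as references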
# eIF4H inh retest = further read-out of eIF4H inh, marked with its call; inhibition, %; compound at 20 µM; confirmation average;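 mean of two retest wells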
# PABP FP inh retest = also measured in PABP FP inh; calls as there; inhibition, %; compound at 20 µM; confirmation repeats;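 mean of two retest wells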
# MT1-MMP act inh RFP = also measured in MT1-MMP act inh; calls as there; RFP signal change, %; measured here: RFP expression control read;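 0 = vehicle wells; hits needed this value within 50% of zero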
# Active calls of the source: *; i = inactive; ? = inconclusive; / = not tested or not shown. The list is partial; count on the stated rates, not on these rows.
SMILES,CSC inhib,PABP FP inh,Rce1 inhib,UUG fidelity,eIF4H inh,Env fusion inh,MT1-MMP act inh,MT1-MMP act inh RFP,others
CCc1ccccc1N1CSC2=C(C#N)C(c3cc(OC)c(OC)cc3OC)CC(=O)N2C1 (stereo not drawn),3,52,i,0,19,-164,-3,0,eIF4H inh retest=11;PABP FP inh retest=10
NC(=NCCc1c[nH]c2ccccc12)NS(=O)(=O)c1cc(F)ccc1F,1,-3,i,1,0,6,1,0,
Cc1ccc(OCC(=O)N(Cc2ccc(C)o2)C2CCS(=O)(=O)C2)cc1 (stereo not drawn),-10,19,i,-3,-3,-1,-1,5,
CCC(C)(C)NC(=O)C(c1ccccc1Cl)N(C(=O)CCC(=O)Nc1cc(C)on1)C1CC1 (stereo not drawn),-4,5,i,-1,-1,2,1,-1,
O=S(=O)(c1ccc(F)cc1)N1CCN(Cc2cc3c(cc2Br)OCCO3)CC1,10,/,/,-1,/,/,1,-11,
COC(=O)C1=C(C)N(CCCCCC(=O)O)C(=O)NC1c1ccccc1 (stereo not drawn),-16,/,i,-17,/,-14,-4,-1,
CC/C=C/C(=O)N1CC2(CC(c3cccc(NC(=O)CC)c3)=NO2)C[C@H]1C(N)=O (stereo partly drawn),4,14,i,-15,-10,26,-5,5,
COc1ccc(NC(=O)c2cc3sccc3n2Cc2ccc(F)cc2)cc1OC,16,-6,i,-12,2,-307,0,-4,
CCOC(=O)C1=C(COC(=O)c2ccc(C)c(S(=O)(=O)N3CCOCC3)c2)NC(=O)NC1C (stereo not drawn),/,/,/,-9,/,-3,1,-4,
CCC1=C(OC(=O)N(CC)CC)N2C(=O)OC(=NCCc3c[nH]c4ccccc34)[C@]2(Cc2ccccc2)[C@H]2C1=CC[C@H]1C(=O)N(c3ccccc3)C(=O)[C@H]12,-5,7,i,-15,3,-19,-2,-2,
CCOc1ccc(C(=O)N2CCCC2)cc1OC,-15,3,i,-18,2,-13,1,-4,
O=S(=O)(Cc1noc(-c2ccc(OC(F)(F)F)cc2)n1)c1ccc(F)cc1,1,-11,i,-9,-6,-9,4,-9,
CCOC(=O)c1[nH]c(C)c(C(=O)Nc2ccc(C)cc2C)c1C,52,-3,i,-6,4,/,-8,-12,
CCc1nc2ccc(C(=O)NCCN3CCNC3=O)cn2c1N(C)Cc1ccc(OC)cc1,/,/,/,-10,/,45,4,8,
CCOC(=O)c1c(C)[nH]c(C(=O)OCC(=O)N(C)c2c(N)n(Cc3ccccc3)c(=O)[nH]c2=O)c1C,4,/,/,4,/,/,-5,3,
O=C1Cc2ccccc2C(=O)N1OCc1ccc(Cl)cc1,-11,-11,i,/,-2,-12,-1,6,
CC(NC(=O)C12CC3(C)CC(C)(CC(C)(C3)C1)C2)C(=O)O (stereo not drawn),1,4,i,/,-8,5,0,2,
O=C(c1ccccc1)N1CCN(C(=O)c2ccc3c(c2)OCCO3)CC1,-5,?,i,/,5,3,0,0,
CC1CCc2nc(NC(=O)c3ccco3)sc2C1 (stereo not drawn),1,-3,i,-79,-3,/,-1,-7,
Cc1cc(C)cc(-n2ccnc2SCC(=O)Nc2nccs2)c1,0,1,i,-25,-7,/,2,2,

# Four entries already listed, ordered by heavy-atom count, lowest first.
SMILES,CSC inhib,PABP FP inh,Rce1 inhib,UUG fidelity,eIF4H inh,Env fusion inh,MT1-MMP act inh,MT1-MMP act inh RFP,others
CC1CCc2nc(NC(=O)c3ccco3)sc2C1 (stereo not drawn),1,-3,i,-79,-3,/,-1,-7,
CC(NC(=O)C12CC3(C)CC(C)(CC(C)(C3)C1)C2)C(=O)O (stereo not drawn),1,4,i,/,-8,5,0,2,
Cc1cc(C)cc(-n2ccnc2SCC(=O)Nc2nccs2)c1,0,1,i,-25,-7,/,2,2,
O=C(c1ccccc1)N1CCN(C(=O)c2ccc3c(c2)OCCO3)CC1,-5,?,i,/,5,3,0,0,

# Continued.
SMILES,CSC inhib,PABP FP inh,Rce1 inhib,UUG fidelity,eIF4H inh,Env fusion inh,MT1-MMP act inh,MT1-MMP act inh RFP,others
Cc1ccc(-c2cc(C(=O)NCCN3CCOCC3)no2)cc1,-18,-4,i,3,4,/,-1,2,
O=C(Cc1ccccc1)NCC(=O)N1CCN(c2ccccc2F)CC1,18,5,i,-20,13,7,-1,3,
COCCn1c(=O)[nH]c2cc(C(=O)N3CCN(c4ccc(OC)cc4)CC3)ccc2c1=O,6,1,/,-7,2,-11,2,-5,
Cc1cc(C(F)F)n2ncc(C(=O)NCCc3ccccc3Cl)c2n1,0,7,i,-10,-1,-1,-1,-3,
COc1ccc(OC)c(S(=O)(=O)Nc2cc3c4c(c2)CC(=O)N4CCC3)c1,1,/,i,-2,/,6,-1,-1,
Cc1noc(C)c1C(=O)OCC(=O)NC1CC1,-11,-2,i,-49,-4,/,-1,3,
CCS(=O)(=O)N1CCC(c2nc(-c3ccc(C)cc3)no2)CC1,0,-5,/,4,-6,-51,3,-11,
O=C(c1ccc2oc(CCCc3ccccc3)nc2c1)N1CCCC(CCCO)C1 (stereo not drawn),3,0,i,10,-4,18,2,-6,
CCC1=[N+](C)c2cccc3cccc(c23)N1C,3,2,i,/,-11,-21,-3,-2,
CCOC(=O)Cc1csc(NS(=O)(=O)c2ccc3c4c(cccc24)C(=O)N3CC)n1,-11,11,i,17,-6,/,4,11,

# By substructure: those above containing two or more sulfur atoms.
SMILES,CSC inhib,PABP FP inh,Rce1 inhib,UUG fidelity,eIF4H inh,Env fusion inh,MT1-MMP act inh,MT1-MMP act inh RFP,others
Cc1cc(C)cc(-n2ccnc2SCC(=O)Nc2nccs2)c1,0,1,i,-25,-7,/,2,2,
CCOC(=O)Cc1csc(NS(=O)(=O)c2ccc3c4c(cccc24)C(=O)N3CC)n1,-11,11,i,17,-6,/,4,11,

# Returning to the listing with the 2 entries that preceded the break.
SMILES,CSC inhib,PABP FP inh,Rce1 inhib,UUG fidelity,eIF4H inh,Env fusion inh,MT1-MMP act inh,MT1-MMP act inh RFP,others
CCC1=[N+](C)c2cccc3cccc(c23)N1C,3,2,i,/,-11,-21,-3,-2,
CCOC(=O)Cc1csc(NS(=O)(=O)c2ccc3c4c(cccc24)C(=O)N3CC)n1,-11,11,i,17,-6,/,4,11,
Nc1nnnn1/N=C/C(Br)=C/c1ccccc1,122*,-2,i,-13,6,i,-23,-41,
O=C(N1CCN(c2ccccc2F)CC1)C1(S(=O)(=O)c2ccc(Cl)cc2)CC1,4,12,i,1,0,7,0,2,
CC1(C)CC(NC(=O)c2c(N)no[n+]2[O-])CC(C)(C)N1,-9,1,i,/,-12,1,2,4,
CCOc1cc(C2CC(=O)N3CN(C4CCCCC4)CSC3=C2C#N)ccc1O (stereo not drawn),-31,3,i,-11,42,-4,2,6,
CC(C)(C#CCN1CCCCC1)OCCOC(c1ccccc1)c1ccccc1,46,-8,i,/,-2,31,3,-7,
CN(CC(=O)Nc1ccc2c(c1)OCCO2)S(=O)(=O)c1ccc(F)cc1,-18,0,i,-17,6,-7,2,0,
COc1ccc(CNC(=O)CCCNS(=O)(=O)c2cccc3nonc23)cc1,-2,-7,i,-10,-1,-40,2,5,
Cc1ccc([C@@H]2CC=C(C(=O)O)[C@H](c3ccc(Cl)cc3)N2S(=O)(=O)c2ccc(C)cc2)cc1,18,/,/,-17,/,-2,-5,1,
O=C(Nc1ccccn1)C1CCN(S(=O)(=O)c2ccc3c(c2)OCCCO3)CC1,-6,/,i,/,/,9,2,-8,
CCOCCCNC(=O)C1CCC(CNS(=O)(=O)c2ccc(F)cc2)CC1 (stereo not drawn),2,-4,i,-5,4,/,-1,1,
Cc1ccc(-c2nnc3sc(CCc4ccccc4)nn23)cc1,0,-1,i,/,4,/,1,0,
COc1ccc(C(CC(=O)O)NS(=O)(=O)c2ccc(C)cc2)cc1 (stereo not drawn),8,-2,i,-11,0,-113,3,3,
COc1ccc(CCN2CC(C(=O)NCc3ccon3)CCC2=O)cc1 (stereo not drawn),/,/,/,-13,/,20,0,5,
COc1ccccc1CN(C)S(=O)(=O)c1cccs1,-11,-2,/,-6,7,1,1,2,
CN(C)/C=N/c1cc(=O)n(C)c(=O)n1Cc1ccccc1,6,-1,i,-8,11,3,4,9,
COCCN(CCOC)C(=O)c1ccc(SCc2ccc(C)cc2)c([N+](=O)[O-])c1,-7,-3,i,/,-16,5,-4,-1,
C=C1N(c2ccccc2)C(=O)OC1(C)C,/,-13,i,/,-3,0,-6,5,
Cc1ccc(S(=O)(=O)c2ccc(Cl)cc2)cc1S(=O)(=O)N(C)CC(=O)O,-14,15,i,/,0,6,-1,1,
Cc1ccc(C(=O)N(Cc2nc(-c3ccc(C)cc3)no2)C(C)C)cc1,0,4,i,-25,0,-6,1,1,
CCc1ccc(NC(=O)CSc2ccc(-c3sc(C)nc3C)nn2)cc1,9,-8,i,-12,18,15,3,-15,

# By substructure, those above with a cyano group (2)
SMILES,CSC inhib,PABP FP inh,Rce1 inhib,UUG fidelity,eIF4H inh,Env fusion inh,MT1-MMP act inh,MT1-MMP act inh RFP,others
CCc1ccccc1N1CSC2=C(C#N)C(c3cc(OC)c(OC)cc3OC)CC(=O)N2C1 (stereo not drawn),3,52,i,0,19,-164,-3,0,eIF4H inh retest=11;PABP FP inh retest=10
CCOc1cc(C2CC(=O)N3CN(C4CCCCC4)CSC3=C2C#N)ccc1O (stereo not drawn),-31,3,i,-11,42,-4,2,6,

# The list goes on:
SMILES,CSC inhib,PABP FP inh,Rce1 inhib,UUG fidelity,eIF4H inh,Env fusion inh,MT1-MMP act inh,MT1-MMP act inh RFP,others
O=C1S/C(=C\c2ccc(O)c([N+](=O)[O-])c2)C(=O)N1c1ccccc1Cl,31,19,i,/,1,10,9,-19,
O=C(Cc1ccccc1)NCC(=O)OCC(=O)c1ccc([N+](=O)[O-])cc1,-14,-9,i,/,-1,/,2,2,
C/C=C(\C)CN1CCC(n2nccc2NC(=O)CCOc2ccccc2)CC1,4,10,i,-16,12,-31,-2,1,
Cc1cc(C2=NNC(=NC3CC3)SC2)c(C)n1Cc1ccco1,44,0,/,/,8,13,-3,-11,
CCC(C)NC(=O)c1cc(Sc2nnc(C)s2)nc2ccccc12 (stereo not drawn),9,-3,i,/,-5,5,/,/,
Cc1nc(SCN2C(=O)c3ccccc3C2=O)n[nH]1,-2,9,i,/,-10,18,0,3,
CC(=O)OC1CC(C)(C)N(OC(=O)c2ccccc2)C(C)(C)C1,9,-7,i,-6,-3,5,-8,-6,
Cc1ccc(SCc2nc3ccccc3[nH]2)cc1,-1,-11,i,-38,-9,-42,-4,-4,
O=C(CN1C(=O)NC2(CCCC2)C1=O)NCCc1ccc(Cl)cc1Cl,-5,/,/,-4,/,-6,2,2,
Cc1ccc(C(=O)Nc2ccccc2C(=O)N2CCCC2)cc1[N+](=O)[O-],5,0,i,/,-2,/,-3,2,
Nc1c2c(nc3ccccc13)N(C1CCCCC1)CC2,42,14,i,-5,18,-37,6,-3,
COc1ccc(NC(=O)CCC(=O)Nc2nnc(C3CCCCC3)s2)c(OC)c1,-14,2,i,-20,-14,2,0,2,
COC(=O)c1ccc(Cn2c(C)c(C(=O)NCc3cccs3)sc2=O)o1,/,/,/,-2,/,-11,2,5,
NC(c1csc(Nc2ccc(C(=O)c3ccccc3)cc2)n1)C1CCCCC1 (stereo not drawn),/,/,/,-4,/,1,-10,-10,
NC(=O)c1ncc(C(F)(F)F)cc1Oc1cccc(F)c1,-11,-6,i,-6,5,/,3,3,
CSc1nc(NNC=O)cc(Oc2ccc(NC(C)=O)cc2)n1,-14,-1,i,-7,-7,-18,4,4,
